Screening data from PubChem BioAssay.
MLL AF4-AF9 inh: blocks AF4 peptide binding to human AF9 | P42568 | 350,000 tested, 0.47% active | inhibition, % at 10 µM | AlphaScreen, biotin-AF4 peptide binding to FLAG-AF9;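 active = every replicate reaching a set inhibition limit, whatever the replicate mean, cut at about 25% in these data; inconclusive = mean inhibition reaches that limit but some replicates miss it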;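 note: 0% = plate neutral control median and 100% = total signal loss; the record names both 10 and 1 µM as test concentration; the first replicate is given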
Target sequence (P42568 whole entry, looked up): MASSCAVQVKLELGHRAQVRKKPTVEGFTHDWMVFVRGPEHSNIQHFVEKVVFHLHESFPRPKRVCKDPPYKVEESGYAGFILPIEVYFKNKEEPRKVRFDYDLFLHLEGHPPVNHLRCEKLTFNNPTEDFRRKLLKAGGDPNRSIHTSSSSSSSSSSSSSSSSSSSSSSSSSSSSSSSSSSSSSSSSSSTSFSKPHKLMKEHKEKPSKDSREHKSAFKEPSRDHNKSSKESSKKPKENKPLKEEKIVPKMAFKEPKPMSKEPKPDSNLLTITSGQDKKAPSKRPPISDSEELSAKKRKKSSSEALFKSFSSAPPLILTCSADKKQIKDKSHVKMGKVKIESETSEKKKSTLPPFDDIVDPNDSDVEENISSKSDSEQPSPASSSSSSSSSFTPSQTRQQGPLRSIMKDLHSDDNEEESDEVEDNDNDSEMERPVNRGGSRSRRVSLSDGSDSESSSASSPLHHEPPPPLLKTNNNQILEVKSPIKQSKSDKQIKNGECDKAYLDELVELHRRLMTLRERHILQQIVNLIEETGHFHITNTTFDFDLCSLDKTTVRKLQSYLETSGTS
Beta cell apopt: blocks beta cell apoptosis; protection from apoptosis, % (test concentration not listed); INS-1E cytokine-induced death, ATP luminescence, 48 h; percent of positive-control rescue, neutral wells zero; 300,000 tested, 0.8% active;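 active = all replicates at 75% or more, or half of them and the mean; inconclusive = half reach 75% but not the mean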;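 note: 0% = cytokine-treated negative control wells and 100% = positive control rescue; higher means more ATP so stronger rescue from cytokine killing; wells of about 40 µL received 100 nL stock; the first replicate is given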
RanGTP-Imp inh: inhibitors of RanGTP-importin-beta interaction, primary screen, biochemical, FRET, CFP-Ran, YFP-importin-beta, homogeneous | inhibition, % (test concentration not listed) | cell-free CFP-Ran/YFP-importin-beta FRET ratio | 300,000 tested, 1.1% active;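 active = most replicates above 15%; inconclusive = exactly half above 15%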;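 note: 0% = DMSO wells and 100% = Ran loaded with GDP instead of GTP; wells of about 40 µL received 100 nL stock; the first replicate is given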
Calb FLC: affects C. albicans growth with fluconazole; C. albicans CaCi-2 (fluconazole-resistant clinical isolate) + fluconazole, Alamar Blue growth, 48 h; growth inhibition, % (concentration not given with the values); 300,000 tested, 0.57% active;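 active = most replicates above 75%; inconclusive = exactly half above 75%; inactive = most below 75%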;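 note: all wells also contain fluconazole at 8 µg/ml as a sub-toxic cotreatment; 0% = median of DMSO wells and 100% = median of geldanamycin control wells; wells of about 8 µL received 7.5 nL stock; the first replicate is given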
T cruzi inh: blocks replication of Trypanosoma cruzi; 300,000 tested, 1.4% active; AID 1885; T. cruzi beta-gal in NIH3T3, luminescence, 90 h; inhibition, % (test concentration not listed);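 active = mean inhibition across valid replicates above about 55%, limit read from the data; inconclusive = mean below that limit but half or more replicates reach it; inactive = mean below it, under half of replicates reach it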;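 note: signal also drops with host cell toxicity which is not excluded here; 0% = plate median of DMSO wells and 100% = zero luminescence signal; higher percent means less beta-gal luminescence so fewer parasites; stock transfer was 50 nL into about 50 µL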
Ecoli rRNA inh: inhibitors of bacterial rRNA selective over humanized ribosomes; E. coli WT GFP vs humanized-ribosome RFP mutants, fluorescence, 24 h; active compounds read low; DMSO median 0, no signal -100; GFP signal change (wild-type ribosome), % (no concentration beside the values); 350,000 tested, 1.6% active; AID 720706;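 active = significant combined selectivity score with lowered wild-type GFP, culture density cut under 30%, mutant RFP and density less affected; inactive = any of these conditions unmet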; note: one replicate is shown; some compounds called inactive have numbers as strong as hits
ALR inh: human ALR oxidase inhibition via reduced H2O2. inhibition, % (concentration not given with the values). 290,000 tested, 3.8% active. P55789. purified ALR, DTT oxidation, H2O2 HRP-luminol luminescence;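 active = mean and each replicate at 75% or more; inconclusive = only one of the two met; inactive = neither met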;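 note: stock transfer was 7.5 nL into about 7.5 µL; 0% = neutral wells and 100% = wells with inactivated enzyme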
Target sequence (P55789 whole entry, looked up): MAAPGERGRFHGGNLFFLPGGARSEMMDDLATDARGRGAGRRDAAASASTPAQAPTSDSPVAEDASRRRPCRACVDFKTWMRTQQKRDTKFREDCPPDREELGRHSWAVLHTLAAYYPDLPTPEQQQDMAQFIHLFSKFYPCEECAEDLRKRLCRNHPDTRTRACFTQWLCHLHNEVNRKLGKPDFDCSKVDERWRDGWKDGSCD
FGF22 binding: binders of recombinant human FGF22 by thermal shift. Q9HCT0. AID 651658. 340,000 tested, 1.5% active. calls only at 9.99 µM. SYPRO orange fluorescence; percent of sucrose octasulfate shift, DMSO zero;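 active = melting point raised past a set limit in the mean and every replicate; inconclusive = no clear call; three in four hits are not shown here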
Target sequence (Q9HCT0 whole entry, looked up): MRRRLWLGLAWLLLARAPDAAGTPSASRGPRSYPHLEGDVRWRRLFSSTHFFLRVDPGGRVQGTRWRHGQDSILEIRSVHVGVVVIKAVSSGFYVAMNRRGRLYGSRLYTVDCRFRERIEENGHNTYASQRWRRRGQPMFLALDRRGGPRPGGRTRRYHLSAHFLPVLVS
Ecoli rRNA inh OD600: second read-out of Ecoli rRNA inh, no call of its own (marks repeat the call); OD600 change, %; measured here: OD600 growth;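 optical density of the mix in the first replicate; 0 = DMSO median and -100 = no signal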
Ecoli rRNA inh RFP: further read-out of Ecoli rRNA inh, marked with its call; RFP signal change, %; measured here: RFP humanized mutant strains;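 first replicate; 0 = DMSO median and -100 = no signal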
Numbers without * were called inactive; i = inactive; ? = inconclusive; . = not tested or not shown.

canonical_smiles,MLL AF4-AF9 inh,Beta cell apopt,RanGTP-Imp inh,Calb FLC,T cruzi inh,Ecoli rRNA inh,Ecoli rRNA inh OD600,Ecoli rRNA inh RFP,ALR inh,FGF22 binding
Cc1cccc(-n2c(O)c(C=NCc3ccccn3)c3ccccc3c2=O)c1,8.2,3,-0.3,33,-14,12,4,4.2,-19,i
COCCSc1nnc(NC(=O)Cc2cccs2)s1,.,0,0.7,-13,1,2,-4,8.0,-10,.
Cc1ccc(C(=O)NC2CCN(Cc3ccccc3)CC2)cc1S(=O)(=O)N1CCOCC1,0.6,2,0.1,0,-4,12,3,1.2,-12,i
COc1ccc([N+](=O)[O-])cc1NS(=O)(=O)c1cc(C(=O)NCc2cccnc2)ccc1Cl,-2.5,-5,.,.,.,.,.,.,-3,i
Cc1c(Cl)cccc1NC(=S)N(C)CCC#N,-2.3,5,0.1,-14,-19,-1,5,-4.5,-2,i
CC(=O)Nc1ccc2nc(NC(=O)COc3ccccc3C)sc2c1,2.4,-7,0.5,-42,-12,-1,18,-0.6,6,i
CCC(C(=O)O)n1c(C(F)(F)F)nc2ccccc21 (centres undefined),.,-6,1.6,.,3,.,.,.,-21,.
COc1ccc(/C=C(/NC(=O)c2ccc(OC)c(OC)c2)C(=O)NCCCn2ccnc2)cc1,3.4,-4,-3.2,5,-1,7,7,1.1,-1,i
COCCn1c(CCC(=O)O)ccc1-c1cccs1,-1.5,-11,6.2,-13,-1,5,5,5.1,81*,i
Cc1ccc(C)c(NC(=O)c2ccc3c(c2)N(Cc2ccc(F)cc2)C(=O)CS3=O)c1 (centres undefined),3.5,3,0.5,-2,-5,-20,-45,7.3,2,i
Cc1cccc(-c2ncc(CN3CCN(C4CCCC4)C(CCO)C3)cn2)c1 (centres undefined),0.0,-1,-1.5,-1,21,2,3,2.3,-4,i
CC(C)c1ccc(Nc2nnc(SCC(=O)Nc3ncc(S(=O)(=O)c4ccc([N+](=O)[O-])cc4)s3)s2)cc1,-3.3,11,-2.8,-2,-3,10,21,0.7,-14,i
CCc1ccc(NC(=O)c2ccnc(C(C)(C)C)c2)cc1,.,0,-1.7,2,9,.,.,.,-1,.
CCOC(=O)C1=C(C)OC(N)=C(C#N)C1c1cc(OC)c2c(c1)OCO2 (centres undefined),.,-8,0.5,-5,-2,.,.,.,-9,.
CN(CC(=O)Nc1ccccc1Br)C(=O)CNC(=O)Cc1cccc2ccccc12,-0.4,-9,0.5,21,-16,-4,-5,0.8,-6,i
COC(=O)Nc1ccc(S(=O)(=O)N2CCN(CCN3C(=O)C4C5C=CC(C5)C4C3=O)CC2)cc1 (centres undefined),.,-2,1.8,8,-4,.,.,.,-2,.
COc1ccc(C2=NOC(C)(c3nnc(-c4ccc(F)cc4)o3)C2)cc1 (centres undefined),.,.,1.1,3,-4,.,.,.,-3,.
NC(=O)C1(N2CCCCC2)CCN(C2CC(=O)NC2=O)CC1 (centres undefined),.,-10,-1.8,7,-16,.,.,.,-5,.
COc1ccc(-c2ccc(C(C)=O)cc2)cc1[C@H]1[C@H]2C=CC[C@@H](C)[C@@H]2C(=O)N1Cc1ccccc1,-15,12,-2.4,15,60*,22,4,13,-2,i
COc1cccc(NC(=O)c2ncc(Cl)c(Cl)c2Cl)c1,-2.7,5,0.3,6,-9,10,8,-1.0,.,i

Full records as entered above. Order of screens: MLL AF4-AF9 inh | Beta cell apopt | RanGTP-Imp inh | Calb FLC | T cruzi inh | Ecoli rRNA inh | Ecoli rRNA inh OD600 | Ecoli rRNA inh RFP | ALR inh | FGF22 binding
`COc1ccc([N+](=O)[O-])cc1NS(=O)(=O)c1cc(C(=O)NCc2cccnc2)ccc1Cl` as listed: -2.5 | -5 | . | . | . | . | . | . | -3 | i
`Cc1ccc(C)c(NC(=O)c2ccc3c(c2)N(Cc2ccc(F)cc2)C(=O)CS3=O)c1` (centres undefined) as listed: 3.5 | 3 | 0.5 | -2 | -5 | -20 | -45 | 7.3 | 2 | i
`COc1ccc(-c2ccc(C(C)=O)cc2)cc1[C@H]1[C@H]2C=CC[C@@H](C)[C@@H]2C(=O)N1Cc1ccccc1` as listed: -15 | 12 | -2.4 | 15 | 60* | 22 | 4 | 13 | -2 | i
`COc1cccc(NC(=O)c2ncc(Cl)c(Cl)c2Cl)c1` as listed: -2.7 | 5 | 0.3 | 6 | -9 | 10 | 8 | -1.0 | . | i

(cont.)
canonical_smiles,MLL AF4-AF9 inh,Beta cell apopt,RanGTP-Imp inh,Calb FLC,T cruzi inh,Ecoli rRNA inh,Ecoli rRNA inh OD600,Ecoli rRNA inh RFP,ALR inh,FGF22 binding
COc1[nH]c2ccc(F)cc2c1C(=O)OCC1CCN(CCNS(C)(=O)=O)CC1,-0.5,-2,1.3,.,-2,4,-7,-1.4,44,i
O=C(NCC1CCCO1)c1nn2c(C(F)(F)F)cc(-c3ccco3)nc2c1Cl (centres undefined),-0.6,0,2.6,-26,1,-1,-1,1.3,.,i
Cc1cc2ncc(Cl)nc2cc1C,.,-6,-2.9,5,-11,.,.,.,-7,.
N/C(=N\OC(=O)c1ccc(Cl)cc1)c1[nH]ncc1Br,-2.2,3,0.1,1,-4,10,5,2.4,11,i
O=C(CSc1nnc(CNC(=O)c2cccs2)o1)Nc1ccccc1F,2.1,-1,0.3,-8,39,4,14,-1.0,-82,i
O=C(NCCN1C(=O)S/C(=C\c2ccccc2F)C1=O)C1CCCN1C(=O)c1cccs1 (centres undefined),4.7,-1,?,13,-5,-7,-6,0.6,1,i
CC(Sc1n[nH]c(N)n1)C(=O)NC1CCCCC1C (centres undefined),-1.7,0,-0.3,0,-12,9,11,-0.9,-5,i
COc1ccc(Cn2c(C(C)C)nc3sc4ccccc4c(=O)c3c2=O)cc1,7.8,4,?,42,49,-5,3,-3.4,-6,i
COc1ccccc1NC(=O)/C(C#N)=C/c1ccc(OCCN2CCOCC2)c(OC)c1,.,-3,-2.0,1,-14,.,.,.,-4,.
CCOC(=O)/C(C#N)=C/C=C1/C=CC=CN1C,2.8,0,4.5,-4,1,-16,-13,-2.0,95*,i
CCOC(=O)C1C(=O)CC(=O)CC1CC(C)SCC (centres undefined),.,4,0.5,-15,-15,.,.,.,16,.
CC1(C)CC2CC(C)(CN2S(=O)(=O)c2ccc(C(=O)Nc3ccc(S(=O)(=O)N4CCOCC4)cc3)cc2)C1 (centres undefined),-0.5,56,1.0,-1,55*,-4,-10,-3.9,-8,i
Cn1c(SCC(=O)NC(=O)Cc2ccccc2)nnc1-c1ccc(F)cc1,-5.2,3,.,.,.,3,9,-2.4,-6,i
CC1(C)N=C(N)N=C(N)N1c1ccc(OCCCOc2ccccc2)c(Cl)c1,4.4,103*,-0.7,7,51,14,5,4.5,-42,i
CCCCCNC(=O)c1ccc2c(=O)n(CCCN3CCCC3=O)c(=S)[nH]c2c1,-2.8,1,0.0,-4,-6,6,18,0.1,57,i
COc1ccc(/C=C(\C#N)C(=O)Nc2cc(C)c(Cl)cc2OC)cc1O,3.5,35,-4.5,-4,-18,12,3,-1.2,-1,i
CCOC(=O)CSCc1cn2cc(Cl)ccc2n1,-25,0,-4.7,-5,-11,10,-3,-1.9,5,i
COC(=O)c1sc(-c2ccccc2)cc1NC(=O)c1cc(OC)cc(OC)c1,.,-6,-2.8,-10,10,.,.,.,.,.
COc1cc(OC)cc(C(=O)N/N=C2/SCC(=O)N2Cc2ccco2)c1,0.6,-6,-15,-5,-7,5,-13,0.6,38,i
CC(=O)Nc1ccc(S(=O)(=O)N[C@H](C(=O)O)C(C)C)cc1,.,-2,2.5,3,-11,.,.,.,-4,.
Fc1cccc(/C=N/Nc2nncc3ccccc23)c1,6.3,-1,-1.0,2,12,3,22,4.2,4,i
COc1ccc(S(=O)(=O)N2CCCC2CNC(=O)C(=O)NC2CCCCCC2)cc1 (centres undefined),0.7,.,-0.9,19,-3,-7,-21,1.1,-2,i
c1ccc(CN2CCN(c3nc4ccccc4s3)CC2)cc1,-5.3,-6,0.4,-1,-5,-10,2,3.5,-2,i
COc1ccc(OCC(=O)Nc2cc3c(cc2C(=O)O)OCCCO3)cc1,-1.0,-3,1.4,2,1,-2,-6,1.3,-9,i
CCN(CC)S(=O)(=O)c1ccc(C(=O)N(c2ccc(C)cc2)C2C=CS(=O)(=O)C2)cc1 (centres undefined),6.5,4,1.0,-29,-9,10,15,5.7,-9,i
CCCc1nnc(NC(=O)CC(=O)Nc2ccccc2C(=O)O)s1,.,-7,2.0,-1,-20,.,.,.,.,.
O=C(CCS(=O)(=O)c1ccccc1Cl)NCc1ccc(F)cc1,3.3,-9,1.7,-4,-8,1,8,-5.8,7,i
Cc1ccc(SCc2cc(=O)c3c(=O)n(-c4ccccc4)[nH]c3[nH]2)cc1,-3.0,-27,6.8,3,-7,-8,11,-5.5,94*,i
Nc1ccc(-c2nc3ccccc3s2)cn1,1.1,-10,-1.1,1,15,-6,-10,-2.2,-2,i
CN(C)S(=O)(=O)c1cccc(N=C2NN=C(c3ccccc3)CS2)c1,3.4,91*,.,.,.,4,18,-2.6,-2,i
COc1cccc(S(=O)(=O)NCc2ccc(C(=O)Nc3cccc(Cl)c3)cc2)c1,.,10,0.0,36,.,.,.,.,-7,.
Cc1ccc(C)c(NC(=O)CN(C)C(=O)C2CCN(C(=O)Nc3ccccc3)CC2)c1,-9.2,2,-1.2,4,-8,5,4,-3.5,-12,i

Three entries from above, arranged by count of non-hydrogen atoms, low to high.
canonical_smiles,MLL AF4-AF9 inh,Beta cell apopt,RanGTP-Imp inh,Calb FLC,T cruzi inh,Ecoli rRNA inh,Ecoli rRNA inh OD600,Ecoli rRNA inh RFP,ALR inh,FGF22 binding
CCOC(=O)CSCc1cn2cc(Cl)ccc2n1,-25,0,-4.7,-5,-11,10,-3,-1.9,5,i
CC1(C)N=C(N)N=C(N)N1c1ccc(OCCCOc2ccccc2)c(Cl)c1,4.4,103*,-0.7,7,51,14,5,4.5,-42,i
COC(=O)Nc1ccc(S(=O)(=O)N2CCN(CCN3C(=O)C4C5C=CC(C5)C4C3=O)CC2)cc1 (centres undefined),.,-2,1.8,8,-4,.,.,.,-2,.

Not all compounds are listed (hit frequency here may not be typical).
